V. cholerae motility: Vibrio cholerae motility inhibitors, OD read-out (AID 588778); one-dose inhibition, %; IC50 in µg/mL for titrated hits; Vibrio cholerae motility, OD read-out; higher % means a stronger effect; test concentration not given here; primary cut-off and reference of the scale not given here; strong numbers were not always called active; 10,000 tested, under 10 active; in the data active = confirmed in a dose series; inconclusive = primary hit not retested
V. cholerae motility viability: also measured in V. cholerae motility; calls as there; inhibition, %; measured here: bacterial viability at 10 ug/mL;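 higher means fewer living bacteria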
* hit, by the source's call; ? = inconclusive; . = no result given.

SMILES | V. cholerae motility | V. cholerae motility viability
Cn1cc(Cl)c(C(=O)Nc2nccs2)n1 | 17% | 32
CCC(C(=O)Nc1cccc(C#N)c1)c1ccccc1 (centres undefined) | 4% | 26
O=C(NCc1cccnc1)c1ccc(NC(=O)C2CCCCC2C(=O)O)cc1 (centres undefined) | 3% | -2
O=C(Nc1ccccc1OC(=O)N1CCOCC1)N1CCOCC1 | 10% | -10
COc1ccccc1NC(=S)NCCCn1ccnc1 | -10% | -4
CN1c2ccccc2Sc2cc(N)ccc21 | -12% | 4
O=C(CNc1n[nH]c(=O)[nH]c1=O)N/N=C/c1ccccc1F | 9% | 21
c1ccc(-c2cnc(-c3ccccc3)nc2)cc1 | 0% | 2
CCOC(=O)N1CCN(c2ccc(F)cc2[N+](=O)[O-])CC1 | 11% | 0
Cc1cc(C)nc(SCc2nnc(SC/C=C\c3ccccc3)n2C)n1 | -13% | -6
Cc1c(Cl)c(C(F)(F)F)nn1CC(=O)Nc1cccc(Cl)c1Cl | 4% | -5
CC1(C)Oc2ccc3ccc(=O)oc3c2C(N2CCCCC2)C1O (centres undefined) | -6% | -7
O=c1n(Cc2ccccc2F)c2ccccc2n1Cc1ccccc1F | -7% | -5
O=C(Nc1cccc(I)c1)C(Cl)Cl | ? | .
O=C(CCCOc1ccccc1)Nn1cnnc1 | -4% | -1
CN1CCN(CC(O)COc2ccc(Br)cc2)CC1 (centres undefined) | 12% | -1
CCOc1ccc(CC#N)cc1Br | 0% | -1
COC(=O)C12CCC(C)(C(OC(=O)c3cc4ccccc4oc3=O)C1)C2(C)C (centres undefined) | 9% | 5
O=C(Nc1ccco1)c1ccc(NS(=O)(=O)c2ccc([N+](=O)[O-])cc2)cc1 | 15% | 18
COC(=O)c1c(C)nn(-c2ccccc2)c1NC(=O)C(C)Oc1ccc(Cl)cc1 (centres undefined) | -29% | -6
O=C(C[n+]1ccccc1)Nc1nccs1 | -1% | 8
CCc1c(C)sc(NC(=O)c2ccncc2)c1C(=O)NC1CCCCC1 | 14% | 9
CCOC(=O)C1CCCN(CC(O)COc2ccccc2C(C)=O)C1 (centres undefined) | 12% | 6
Nc1nnc(SCc2ccc(OC(F)(F)C(F)F)cc2)s1 | 25% | 7
CCCCSc1nc(C)[nH]c1[N+](=O)[O-] | 13% | 2
Other compounds follow.
SMILES | V. cholerae motility | V. cholerae motility viability
CCOC(=O)c1c(NC(=O)CSc2nc3ccc([N+](=O)[O-])cc3s2)sc2c1CCCC2 | -2% | -3
CC(C)OCCCNC(=O)C(=O)NC1CC1 | 16% | 23
O=C1Nc2ccccc2C12Nc1ccccc1CO2 (centres undefined) | 33% | 21
Cc1ccc(F)cc1Nc1nnc(-c2cc3c(ccc4ccccc43)oc2=O)s1 | 11% | 28
O=c1c2c(nc3nc(Cc4ccccc4)[nH]n13)CCC2 | 5% | 1
Cc1csc(NC(=O)Cc2ccc(Cl)cc2)n1 | 13% | -3
O=C1c2ccc3c4c(ccc(c24)C(=O)N1Cc1cccnc1)C(=O)N(Cc1cccnc1)C3=O | -10% | -4
COc1cc(S(=O)(=O)NCCc2ccccc2)c(OC)cc1Br | 7% | -7
Cc1cc(C)cc(NS(=O)(=O)c2ccc(NC(=S)NC(=O)c3cccs3)cc2)c1 | -15% | -9
O=C(CN1CCOCC1)Nc1ncccn1 | -4% | 8
COC(=O)c1cc(-c2c[nH]c3ccccc23)n[nH]1 | 16% | 4
Cn1c2ccccc2c2nnc(SCCCC(=O)c3ccc4c(c3)OCCO4)nc21 | 5% | -2
COc1ccc(C(=O)Oc2ccc(C=C3C(=O)NC(=S)NC3=O)cc2)cc1 | 3% | -2
O=C(CN1C(=O)COc2ccc(Cl)cc21)Nc1ccc(F)c(F)c1F | -1% | 3
O=C1CC(c2ccccc2F)C2=C(CC(c3cccs3)CC2=O)N1 (centres undefined) | 12% | -3
CCOC(=O)C1=NN(c2ccccc2)C(=O)C1OC(C)=O (centres undefined) | 13% | 8
CCn1cc(C(C)NC(=S)Nc2ccc(F)c(Cl)c2)c(C)n1 (centres undefined) | 12% | 0
CC(=O)N(C(C)=O)c1ccc(C(c2ccccc2)(c2ccccc2)c2ccccc2)cc1 | 18% | 2
O=C1C2C3C=CC(C3)C2C(=O)N1CCC(=O)N1c2ccccc2Sc2ccccc21 (centres undefined) | 0% | -1
CC(=O)c1ccc(NC(=O)C2C3C=CC(C3=C(c3ccccc3)c3ccccc3)C2C(=O)O)cc1 (centres undefined) | 7% | 3
Cc1ccc2nc(/C(C#N)=C\c3ccc(Br)o3)[nH]c2c1 | -15% | -4
COc1ccc(CNC(=O)C(=O)NC2CC(C)(C)NC(C)(C)C2)cc1 | -11% | -1
Cc1cc(=O)n(C)c(=O)n1CCCCO | 2% | -3
COc1ccc(NC(=O)N2CCN(Cc3ccc(Cl)c(Cl)c3)CC2)cc1OC | 13% | 2
Cc1ccc(C)n1-c1ccc(N2CCN(c3ccccc3)CC2)c([N+](=O)[O-])c1 | -3% | -4

Compound profiles, as listed above. Screens in order: V. cholerae motility, V. cholerae motility viability
Results for O=C1Nc2ccccc2C12Nc1ccccc1CO2 (centres undefined) = 33%, 21
Results for COc1ccc(C(=O)Oc2ccc(C=C3C(=O)NC(=S)NC3=O)cc2)cc1 = 3%, -2
Results for Cn1c2ccccc2c2nnc(SCCCC(=O)c3ccc4c(c3)OCCO4)nc21 = 5%, -2
Results for CC(C)OCCCNC(=O)C(=O)NC1CC1 = 16%, 23
Results for CC(=O)N(C(C)=O)c1ccc(C(c2ccccc2)(c2ccccc2)c2ccccc2)cc1 = 18%, 2

More structures follow:
SMILES | V. cholerae motility | V. cholerae motility viability
COC(=O)c1ccc(C(=O)OC)c(NC(=O)Nc2cccc(C(C)=O)c2)c1 | -3% | -6
Cc1nc2ccc(C(=O)OCc3ccc(S(=O)(=O)Cc4ccccc4)cc3)cc2nc1C | 0% | -5
CC(=O)c1ccc(COC(=O)CCC(=O)Nc2ccc(Br)c3cccnc23)cc1 | 2% | -2
O=C(CSc1ccccc1)N1CCN(C(=O)c2ccco2)CC1 | 14% | 2
Cn1c(=O)c2c(nc(Sc3ncnn3CC(=O)Nc3ccc(F)cc3)n2C)n(C)c1=O | 10% | -1
O=C(Nc1cnn(Cc2c(F)cccc2Cl)c1)C1CCC1 | 19% | 3
Cc1ccc(-c2noc(CN(C(=O)C(c3ccccc3)c3ccccc3)C(C)C)n2)cc1 | -6% | 13
CN(C)c1nc(N)nc(Cn2ccnc2)n1 | -1% | -13
CC1(C)CC(=O)C2=C(C1)c1c(ccc3ccccc13)NC2c1cn(Cc2ccc(Cl)c(Cl)c2)nc1-c1ccccc1 (centres undefined) | -7% | -1
O=C1NC(=O)N(c2ccc(Cl)cc2)C(=O)/C1=C/c1cccn1-c1ccccc1 | -3% | -5
O=C(Oc1ccccc1)c1ccccc1OCc1ccc(S(=O)(=O)Cc2ccccc2)cc1 | -3% | -3
CC(C)(CO)NCC(O)COc1ccccc1Cl (centres undefined) | -9% | -10
CCC(=O)c1cccc2c1N=CC1=C(CC(C)(C)CC1=O)N2 | -10% | -1
O=C(c1ccc(F)cc1)N1CCN(c2ccc([N+](=O)[O-])c(Sc3nc4ccccc4[nH]3)c2)CC1 | -21% | -10
Cn1c(SCC(=O)NCc2ccco2)nc2c1c(=O)n(Cc1ccc(Cl)cc1Cl)c(=O)n2C | -14% | -11
CCOC(=O)COc1ccc(-c2nn[nH]n2)cc1 | 9% | -2
COc1ccc(OC)c(S(=O)(=O)N2CCN(c3ccccn3)CC2)c1 | -7% | -3
Cc1cc(Cl)ccc1OCC(=O)N1CCN(Cc2ccccc2)CC1 | 7% | 0
CC(=O)c1c(C)oc2ccc(N(C(=O)c3ccncc3)S(=O)(=O)c3ccc(F)cc3C)cc12 | -3% | 4
Cc1cc(OC(=O)c2ccccc2F)c(C(C)C)cc1NC1=NS(=O)(=O)c2ccccc21 | 15% | 8
O=C(CCS(=O)(=O)Cc1ccccc1)N1CCc2ccccc2C1 | 6% | -2
CC(=O)Nc1cc(S(=O)(=O)C(F)(F)F)ccc1Cl | 0% | 2
CCOC(=O)N1CCN(CC(=O)Nc2ccc(Oc3ccccc3)cc2)CC1 | 10% | 4
O=c1c(NC2CC2)c(Br)cnn1-c1ccccc1 | 3% | -4
CC(=O)N(C(C)=O)c1c(N2CCCCC2)c2ccccc2oc1=O | 4% | -5

Part of the list above, as a markdown table.
| Structure | V. cholerae motility | V. cholerae motility viability |
| --- | --- | --- |
| O=c1n(Cc2ccccc2F)c2ccccc2n1Cc1ccccc1F | -7% | -5 |
| O=c1c(NC2CC2)c(Br)cnn1-c1ccccc1 | 3% | -4 |
| O=C(Nc1ccccc1OC(=O)N1CCOCC1)N1CCOCC1 | 10% | -10 |
| O=C(CSc1ccccc1)N1CCN(C(=O)c2ccco2)CC1 | 14% | 2 |
| Cn1c2ccccc2c2nnc(SCCCC(=O)c3ccc4c(c3)OCCO4)nc21 | 5% | -2 |

Carrying on:
SMILES | V. cholerae motility | V. cholerae motility viability
CCOC(=O)C1=C(CSc2nccn2C)NC(=O)NC1c1cc(C)ccc1C (centres undefined) | 16% | -4
CCOC(=O)c1ccc(NC(=O)C(CC)Sc2nc(SC)ns2)cc1 (centres undefined) | 13% | -3
COC(=O)c1sccc1NC(=O)CN1CCN(c2ccc(F)cc2)CC1 | 7% | 0
CCOC(=O)C(CO)NC(=O)c1cncc(Br)c1 (centres undefined) | 15% | 23
O=C(c1ccccc1)C(Nc1ccccn1)c1ccccc1 (centres undefined) | -14% | -1
COc1ccccc1N1CCN(CC(=O)NC2CC3CCC2C3)CC1 (centres undefined) | 3% | -2
O=C(CSc1nc2ccccc2n1Cc1ccccc1)c1ccc([N+](=O)[O-])cc1 | -10% | 0
COc1ccc(-c2csc3ncnc(Oc4cccc5cccnc45)c23)cc1 | -33% | -9
CN(C)S(=O)(=O)N1CCN(CC(O)COc2ccc3cc(Br)ccc3c2)CC1 (centres undefined) | 5% | 3
CC1=Nc2ccc(C)c3nc(C)cc(c23)N1c1ccc(C)cc1 | 18% | 6
COc1ccc(C(=S)N(C)C)cc1OC | -16% | -2
COC(=O)c1cn(C(=O)COc2cccc(C)c2)c2ccccc12 | 15% | -2
O=C(CN1CCOCC1)c1ccccc1 | 17% | 10
CCOC(=O)c1c(C)n(CC)c2ccc(OC(=O)CSc3ccccc3)cc12 | 17% | 6
CCOC(=O)c1sc(NC(=S)N2CCN(C(=O)C3CCCO3)CC2)c(C(=O)OCC)c1C (centres undefined) | 1% | -6
O=[N+]([O-])c1cccc(CN2CCC(N3CCCC3)CC2)c1 | -18% | -10
Cn1c(CNC(=O)c2ccccc2F)nnc1SCC(=O)Nc1cc(C(F)(F)F)ccc1Cl | 3% | -1
OC(CN1CCCCC1)Cn1ccc2ccccc21 (centres undefined) | -10% | 1
CS(=O)(=O)Nc1ccc(C(=O)Nc2cc(C(F)(F)F)ccc2Cl)cc1 | -8% | -11
C=CCn1c(SCc2ccc(C(=O)OC)cc2)nnc1-c1sc(N)nc1C | -3% | 0
c1ccc(COc2ccc(CNn3cnnc3)cc2)cc1 | 1% | -4
O=C(NCc1ccc(Cl)cc1)c1ccc(C(=O)NCc2ccc(Cl)cc2)nc1 | -6% | -8
O=C(Nc1ccc(F)cc1F)N1CCN(Cc2ccco2)CC1 | -38% | -15
Cc1ccc(C(=O)C(OC(=O)c2cccnc2)c2ccccc2)cc1C (centres undefined) | -5% | -4
O=C(CSCc1ccc(Br)cc1)Nc1ccc2c(c1)OCCO2 | 20% | 21
Carrying on:
SMILES | V. cholerae motility | V. cholerae motility viability
Cc1nc2cc(NC(=O)N3c4ccccc4CC3C)ccc2o1 (centres undefined) | -5% | 2
CCOc1ccc(NC(=S)c2ccc3ccccc3n2)cc1 | -34% | -11
Cc1ccc(Cc2cncc(O)c2)cc1S(=O)(=O)O | 4% | 22
COc1ccc(-c2csc(NC(=O)c3cccnc3)c2C#N)cc1OC | -15% | -6
Cc1ccc(C(=O)c2oc3ccccc3c2NC(=O)c2ccccc2[N+](=O)[O-])cc1F | 4% | -2
N#Cc1sc2nc(C3CC3)cc(-c3ccc(Cl)cc3)c2c1N | -46% | -20
CC(C)c1ccc(C2=NN(c3ccccc3)C(=O)CC2)cc1 | 5% | -5
O=C(CN1C(=O)c2ccccc2C1=O)Nc1ccc(Sc2ccc([N+](=O)[O-])cc2)cc1 | -20% | -12
Cc1c(Cl)cccc1NC(=O)CCC1CCCC1 | 5% | -6
O=C(O)C1CCN(S(=O)(=O)/C=C/c2ccccc2)CC1 | 5% | 0
N/C(CC(=O)Nc1cccc(Cl)c1)=N\O | 0% | -2
CCOC(=O)c1ccc(NC(=O)N2CCN(c3cccc(C(F)(F)F)c3)CC2)cc1 | -2% | 3
O=C(COC(=O)c1cccc(NC(=O)C(F)(F)F)c1)c1ccccc1 | -6% | -2
O=S(=O)(NCCSc1nnc(-c2ccco2)n1-c1ccccc1)c1ccccc1 | -9% | -8
COc1ccc(C(=S)N2CCN(C(=S)Nc3ccccc3)CC2)cc1 | 6% | -3
Cc1ccc(SCC(=O)NCc2nc(-c3ccc(Cl)cc3)no2)cc1 | -5% | -7
CC(=O)Oc1c(C(=O)c2ccccc2)sc2ccccc12 | 139% | 47
Cn1c(Cc2ccccc2)nnc1Sc1ccc([N+](=O)[O-])cc1S(=O)(=O)N1CCOCC1 | 18% | 8
CC(C)OC(=O)c1ccc(COC(=O)c2ccco2)cc1 | 35% | 6
CC12CN3CC(C)(CN(C1)C3c1ccc3c(c1)OCO3)C2=O (centres undefined) | 2% | -3
Cc1scc(C(=O)Nc2ccccn2)c1-c1ccccc1 | 0% | 6

Looked up above:
For V. cholerae motility viability, COc1ccc(-c2csc(NC(=O)c3cccnc3)c2C#N)cc1OC reads -6
For V. cholerae motility, CC1=Nc2ccc(C)c3nc(C)cc(c23)N1c1ccc(C)cc1 reads 18%
For V. cholerae motility viability, CCOC(=O)N1CCN(CC(=O)Nc2ccc(Oc3ccccc3)cc2)CC1 reads 4

Some of the compounds tested (hit frequency here may not be typical).
